AID504770 – growth inhibitors of E. coli YBA685 in a screen for V. cholerae RctB (chromosome II replication) inhibitors. E. coli YBA685 rctB-dependent plasmid, OD600 growth, 3 h; stronger effect = lower value. z-score (concentration not given with the values). hit rate 0.27% among 130,000;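 active = z-score under -2 on both plates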;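 note: wells of about 30 µL received 100 nL stock; score is relative to mean and SD of the test wells; the first replicate is given; strong numbers were not always called active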
Ba CapD inh – inhibitors of Bacillus anthracis CapD enzyme. hit rate 0.23% among 140,000. purified CapD enzyme, fluorescence intensity read-out; stronger effect = lower value; some hits fall short of the stated cut. z-score (no concentration beside the values). AID 492967;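 active = z-score under -4 in either of two replicates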;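 note: stock transfer was 100 nL into about 40 µL; score is relative to mean and spread of the plate; one replicate is shown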
Numbers without * were called inactive; . = not tested or not shown. Some of the compounds tested, so the mix of outcomes need not match the whole.

item	SMILES	AID504770	Ba CapD inh
1	COc1ccccc1C(=O)Nc1ccc(CC#N)cc1	0.5	0.47
2	NC(=S)Nc1cc(Cl)ccc1Cl	.	0.035
3	O=C(O)CC(NC(=O)c1ccccc1Cl)c1ccccc1 (centres undefined)	-0.15	0.28
4	O=C(O)C(Cc1c[nH]c2ccccc12)N1C(=O)C2CC=CCC2C1=O (centres undefined)	-1.6	-0.34
5	CC1CCN(c2nnc(-c3ccccc3)c3ccccc23)CC1	.	-0.56
6	Cc1cc2c(cc1C)C(=O)C(c1ccccc1)=C(NCc1ccccc1)C2=O	-0.15	80
7	O=C(/C=C\c1ccc2c(c1)OCO2)Nc1nnc(-c2ccccc2)s1	-0.15	0.92
8	O=C([C@@H](c1ccccc1)N1Cc2ccccc2C1=O)N1CCN(Cc2ccccc2)CC1	-0.05	0.11
9	Cc1ccc(C(=O)Nc2ccc(-c3noc(-c4ccc(Br)o4)n3)cc2)cc1[N+](=O)[O-]	.	0.075
10	Cn1c(=O)[nH]c(=O)c2[nH]c(CN3CCN(Cc4ccccc4)CC3)nc21	0	0.41
11	CCC(C)NC(=O)c1ccccc1NC(=O)CN1C(=O)c2ccccc2S1(=O)=O (centres undefined)	-0.4	1.5
12	Cc1nn(C(=O)c2ccc(Cl)cc2)c(C)c1Sc1nnc(C(F)(F)F)n1C	-0.45	11
13	COc1ccc(F)cc1S(=O)(=O)Nc1ccc2c(c1)N(C(C)=O)CCC2	-0.4	.
14	CC1CCN(CCCN)CC1	2.3	.
15	Fc1ccc(Nc2nc3ccc(Cl)cc3n3cnnc23)c(F)c1	0.2	-0.58
16	CC1(C)CC(=O)CC(=NC2CCS(=O)(=O)C2)C1 (centres undefined)	-0.05	0.35
17	O=[N+]([O-])c1ccc(N2CCOCC2)c(Cl)c1	.	0.39
18	OC(CNc1ccncc1)COc1ccc(OCC(O)CNc2ccncc2)cc1 (centres undefined)	-0.5	.
19	COc1ccc(S(=O)(=O)Nc2ccc(-c3csc(C)n3)cc2)cc1	0	.
20	CC(=O)n1c2c(c3cc(C)ccc31)CCCC2=O	1.4	4.3
21	O=C(NC1CCCCC1)c1cc(F)cc2c1OCOC2	0.1	1.3
22	O=S(=O)(c1cccs1)N1CCN(Cc2nc3ccccc3s2)CC1	0.15	.
23	Cc1occc1C(=O)NC(C)C12CC3CC(CC(C3)C1)C2 (centres undefined)	-0.55	.
24	O=S(=O)(/N=C(\Nc1ccccc1)c1ccccc1)c1ccc(Br)cc1	-0.15	-0.19
25	CSc1nc2sc(C)cc2c(=O)n1C	-0.35	.
26	N#Cc1ccc(/C=C/C(=O)NCc2ccccc2)cc1	0.75	0.11
27	COc1ccc(C(=O)N2CCN(S(=O)(=O)c3ccc(C)c([N+](=O)[O-])c3)CC2)cc1F	.	-0.85
28	CC(=O)Nc1nc2ccc(S(=O)(=O)N3CCCC3)cc2s1	0.75	-1.4
29	Cc1c(C(=O)O)oc2ccc(S(=O)(=O)NC3CCCCC3)cc12	0.95	0.5
30	CCc1cc(C#N)c(O)cn1	-1.3	.
31	CCOc1cc(C(F)(F)F)cnc1/C(N)=N/O	-0.3	-0.12
32	CSCC(=O)Nc1ccc(-c2ccccc2)cc1	-0.1	.
33	O=C(O)C1C2C=CC3(O2)C1C(=O)N1c2ccccc2COC13 (centres undefined)	3.8	-1.1
34	CC(C)Cc1ccc(C(C)C(=O)NC(C)Cc2c[nH]c3ccccc23)cc1 (centres undefined)	-0.05	-0.09
35	CCOC(=O)c1sc(N)c(C#N)c1CSc1ccc2c(c1)OCCO2	-0.15	.
36	COc1ccc(C2=NN(C(=O)c3ccc(Br)o3)C(c3ccc(N(C)C)cc3)C2)cc1OC (centres undefined)	.	-0.37
37	CCOC(=O)C1=C(C)N(Cc2cc(Cl)ccc2Cl)c2ccccc2S1	.	-0.61
38	CN(C)c1ncnc2c1ncn2C1OC(CO)C(O)C1O (centres undefined)	0.55	.
39	COc1ccc(C2CC(c3cccs3)=NN2C(=O)CSc2nnc(CNC(=O)c3cccc(OC)c3)n2C)cc1 (centres undefined)	.	16
40	Cc1ccc(S(=O)(=O)N2CCOCC2)cc1C(=O)NC(=S)Nn1cnnc1	-0.05	.

Down the list, quoted from above:
AID504770, entries 33 to 40, in order: 3.8, -0.05, -0.15, ., ., 0.55, ., -0.05

More compounds
item	SMILES	AID504770	Ba CapD inh
41	COc1ccc(Nc2nc(Cl)nc(NCCN3CCOCC3)n2)c(OC)c1	.	0.085
42	COc1ccc(Cc2nn3c(C(C)(C)C)nnc3s2)cc1OC	-0.05	-0.075
43	CCN(CC)S(=O)(=O)c1ccc2c(c1)c(=O)c(C(=O)O)cn2C	1.6	0.68
44	Brc1ccc(-c2nnc3sc(CN4CCCCC4)cn23)cc1	-0.85	.
45	O=C(Nc1nnc(-c2ccccc2)o1)NC1CCCCC1	0.2	.
46	CCOc1nc(SCCOc2ccccc2)nc(N(C)C)n1	.	-0.18
47	CC(C)(C)c1ccc(C(=O)O/N=C2\CCCc3[nH]c4ccccc4c32)cc1	.	-0.21
48	CCn1c(SCC(=O)Nc2ccc3c(c2)OCCCO3)nc2cc(S(N)(=O)=O)ccc21	2.1	.
49	Cc1onc(-c2c(Cl)cccc2Cl)c1C(=O)Nc1ccc(F)c(Cl)c1	.	0.33
50	Cc1cccc(N2CCN(c3cccc(C)c3)C2c2ccc([N+](=O)[O-])cc2)c1	.	0.035
51	Cc1nnc(SCc2cc(=O)[nH]c(N3CCN(c4ccccc4)CC3)n2)s1	0.6	0.31
52	COc1cccc(N=c2scc(-c3cccs3)n2CCCN2CCCC2=O)c1	-0.5	.
53	O=C(CNC(=O)c1ccccc1)NCc1ccc(F)cc1	-1.1	.
54	CCOC(=O)N1CCN(C(=O)CCN2C(=O)/C(=C\C(C)=C\c3ccccc3)SC2=S)CC1	.	0.025
55	CCOC(=O)CCc1nc2sc3c(c2c(=O)[nH]1)CCCC3	1.7	.
56	OCC(CO)(CO)c1ccccn1	1.4	0.025

Nothing new here: an excerpt of the list.
item	SMILES	AID504770	Ba CapD inh
53	O=C(CNC(=O)c1ccccc1)NCc1ccc(F)cc1	-1.1	.
54	CCOC(=O)N1CCN(C(=O)CCN2C(=O)/C(=C\C(C)=C\c3ccccc3)SC2=S)CC1	.	0.025
55	CCOC(=O)CCc1nc2sc3c(c2c(=O)[nH]1)CCCC3	1.7	.
56	OCC(CO)(CO)c1ccccn1	1.4	0.025

Continuation:
item	SMILES	AID504770	Ba CapD inh
57	CCOc1ccc(CCNC(=O)c2cc3c(=O)oc4ccc(C)cc4c3s2)cc1	1.5	2
58	O=C(CSc1nnc(-c2ccccc2)o1)N1CCc2ccccc21	0.1	-0.72
59	CC1(C)CCc2cc(CN3CCN(Cc4ccccc4)CC3)ccc2O1	0.65	0.66
60	COc1ccc(-c2[nH]nc3c2C(c2ccc([N+](=O)[O-])cc2)C(C#N)=C(N)O3)cc1OC (centres undefined)	.	-0.31
61	CC(=O)Nc1c2c(nn1-c1ccc(F)cc1)CSC2	0.25	.
62	CC1=NN(c2ccccc2)C(=O)/C1=C\c1cn(C)c2ccccc12	1.2	.
63	COc1ccc(/C=C/C(=O)N(C)C2CCS(=O)(=O)C2)cc1 (centres undefined)	0.05	.
64	O=S(=O)(NCc1ccncc1)c1ccc(Br)cc1	-0.5	0.035
65	Cc1ccc(SCCC(=O)N/N=C/c2c(CO)cnc(C)c2O)cc1	1.5	.
66	COc1ccc(CNC(=O)c2ccc(N3CC4CC(C3)c3cccc(=O)n3C4)c(NC(=O)c3ccccc3Cl)c2)cc1 (centres undefined)	.	0.035
67	CC1CCCC(NCCNC(=O)c2ccco2)C1 (centres undefined)	-0.45	0.71
68	CCCNC(=O)C(=O)c1cccn1-c1c(C(=O)OC)sc2ccccc12	.	0.015
69	COCCNC(=O)c1ccc(S(=O)(=O)N2CCCc3ccccc32)cc1	-0.85	.
70	COc1ccc(N=Cc2cc(Br)ccc2O)c(OC)c1	-0.95	-1.6
71	CC1Cc2cc(S(=O)(=O)CCC(=O)Nc3cccnc3)ccc2N1C(=O)C1CC1 (centres undefined)	-0.35	0.41
72	Cn1c(=NC(=O)c2ccc(Br)s2)sc2cc(F)ccc21	-0.05	1.3
73	Cn1c(CCC(=O)NNC(=O)c2ccco2)nc2ccccc21	.	-0.86
74	CN(C(=O)c1ccco1)C1CC(C)(C)N(O)C(C)(C)C1	1.5	-0.13
75	CN1c2ccccc2N(C)C1c1ccc(O)cc1	-1.5	-0.49
76	Cc1cccc(C(=O)OCC(=O)Nc2ccc3c(c2)OCCO3)c1C	-1.1	.
77	c1ccc(COn2c3c(c4c5nonc5ccc42)CCCC3)cc1	1	2.2
78	CCC1CCCCN1C(=O)c1cc2c(C)nn(-c3ccccc3)c2s1 (centres undefined)	-0.15	-0.07
79	O=C(CNc1cc(C(F)(F)F)cc(C(F)(F)F)c1)c1ccc(Cl)cc1	.	0.46
80	COC(=O)c1cc(-c2ccc(OCc3ccccc3)c(OC)c2)no1	-0.4	1.6
81	CS(=O)(=O)c1ccc(CSCCNC(=O)c2ccco2)cc1	.	-0.25
82	Cc1ccc(S(=O)(=O)CCc2nnc(NC(=O)C3CCCN3C(=O)NC3CCCCC3)s2)cc1 (centres undefined)	-0.7	.
83	CC(C)(C)c1ccc(Cn2c(=N)n(CC(=O)c3ccco3)c3ccccc32)cc1	-1.2	0.39
84	O=C(O)c1ccc(-c2nc(-c3ccc4c(c3)C(=O)c3ccccc3-4)c(-c3ccccc3)[nH]2)cc1	.	-0.58
85	Cc1ccc(CCC(=O)Nc2ccccc2C(=O)O)o1	0.3	.
86	COC(=O)c1ccc(/C=C2\SC(N3CCN(C)CC3)=NC2=O)cc1	.	-0.35
87	C=CCNCc1ccc2c(c1)c1ccccc1n2CC	-0.25	.
88	Cc1ccc(-n2nnc3c(SCC(=O)NCc4ccccc4Cl)ncnc32)cc1	0.05	-1
89	NC1=NC(c2ccc(Cl)cc2)C(C(=O)c2ccccc2)N1 (centres undefined)	0.25	0.18
90	O=C1CCC(=O)N1c1ccccc1-c1ccccc1	-0.8	-0.09
91	COC(=O)c1ccccc1S(=O)(=O)Cc1ccc(OC)c(OC)c1	-1	-0.72
92	CCOC(=O)c1cnc2c(c(C)nn2C)c1Oc1ccc(Cl)cc1	.	0.085
93	COc1ccc(C)cc1-n1cnc2cc(C(=O)NCc3ccc(F)cc3)ccc21	.	0.085
94	CCN(CC)Cc1ccc(C(=O)OC)o1	-0.8	.
95	COc1ccc([N+](=O)[O-])cc1-c1ccc(/C=c2\sc3nc4c(C)cc(C)cc4n3c2=O)o1	.	-1.8
96	O=C(Nc1ccncc1)c1ccc2nc[nH]c2c1	-0.9	-0.47
97	N#CCCn1nc(-c2ccccc2)cc1-c1ccccc1	-0.5	.
98	COc1cccc(CNC(=O)CSc2nc3cccnc3s2)c1OC	0.15	-0.49
99	CCC(C(=O)Nc1c(-c2ccccc2)nc2cc(C)ccn12)c1ccccc1 (centres undefined)	-0.7	-0.54
100	Cc1c(CCO)sc[n+]1Cc1ccccc1	-0.5	-0.58
101	CCOC(=O)c1cnn(-c2ccc(Cl)cc2)c1C1CCNCC1	1.4	-0.48
102	NC(=O)c1nc2n(c1N)CCCC2	-0.95	0.36
103	Cc1ccccc1Nc1nc(N)nc(CNCc2ccccc2)n1	0.7	.
104	CCn1c2ccccc2c2nnc(SCC(=O)N=C3NC(=O)CS3)nc21	0.1	-1.3
105	O=C(NCC(c1cccnc1)N1CCN(Cc2ccccc2)CC1)c1ccccc1 (centres undefined)	-0.8	-0.02
106	CC(=O)C(Cc1ccc([N+](=O)[O-])cc1)(Cc1c(F)cccc1Cl)C(C)=O	.	0.13
107	N#Cc1cc(Cl)c(N2CCCCCC2)cc1C#N	-0.25	.
108	CS(=O)(=O)c1cccc(C(=O)NCCCN2CCc3ccccc32)c1	.	0.38
109	CCN(CC)C(=O)c1sc2nc3c(cc2c1N)CCCCC3	-0.95	-0.9
110	CCN(CC)CCNc1ccc2nnc(CCNS(=O)(=O)c3ccc(C)cc3)n2n1	-0.25	.
111	Nc1nc(-c2ccco2)nn1C(=O)Cc1ccccc1	-0.45	-0.73
112	Cc1cc(F)ccc1NC(=O)CN1C(=O)CC(C)(C)S(=O)(=O)c2ccccc21	-0.05	0.43

New compounds follow
item	SMILES	AID504770	Ba CapD inh
113	COCCCn1[nH]nnc1=S	-0.55	.
114	O=C(NCc1cccnc1)c1ccc(NC(=O)c2ccco2)cc1	-0.65	.
115	CC1(C)CC(=O)c2cc(OCC(=O)NCCCN3CCCC3)ccc2O1	-0.85	66
116	Clc1cc(-c2ccccc2)c2ccccc2n1	0.7	1.4
117	COCC(C)N=C1SCCN1Cc1ccccc1 (centres undefined)	0.1	.
118	Cc1ccc(-n2c3c(cc(C(N)=O)c2=O)C(=O)CC(C)(C)C3)cc1	-0.8	.
119	CCC(=O)N1c2ccccc2NC2=C(C(=O)CC(c3cccc([N+](=O)[O-])c3)C2)C1c1ccc(Cl)cc1 (centres undefined)	.	-0.87
120	COc1cccc(CNC(=O)C2CCCN(C(=O)c3cnn(-c4ccc(F)cc4)c3-n3cccc3)C2)c1 (centres undefined)	0.25	-1
121	Cc1ccc(C(=O)CSc2cccc[n+]2[O-])cc1	1.9	-0.48

Compound activity (PubChem)
